AF4-AF9 inh – inhibitors of AF4 peptide binding to AF9, primary screen, biochemical, AlphaScreen, biotin-AF4 peptide, FLAG-AF9, single point; 0.47% of 350,000 active; Protein AF-9 (Homo sapiens), P42568; inhibition, % at 10 µM; AID 651704, 2012;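 active = every replicate reaching a set inhibition limit, whatever the replicate mean, cut at about 25% in these data; inconclusive = mean inhibition reaches that limit but some replicates miss it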;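 also: 0% = plate neutral control median and 100% = total signal loss; the record names both 10 and 1 µM as test concentration; the first replicate is given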
Target sequence (P42568 whole entry, looked up): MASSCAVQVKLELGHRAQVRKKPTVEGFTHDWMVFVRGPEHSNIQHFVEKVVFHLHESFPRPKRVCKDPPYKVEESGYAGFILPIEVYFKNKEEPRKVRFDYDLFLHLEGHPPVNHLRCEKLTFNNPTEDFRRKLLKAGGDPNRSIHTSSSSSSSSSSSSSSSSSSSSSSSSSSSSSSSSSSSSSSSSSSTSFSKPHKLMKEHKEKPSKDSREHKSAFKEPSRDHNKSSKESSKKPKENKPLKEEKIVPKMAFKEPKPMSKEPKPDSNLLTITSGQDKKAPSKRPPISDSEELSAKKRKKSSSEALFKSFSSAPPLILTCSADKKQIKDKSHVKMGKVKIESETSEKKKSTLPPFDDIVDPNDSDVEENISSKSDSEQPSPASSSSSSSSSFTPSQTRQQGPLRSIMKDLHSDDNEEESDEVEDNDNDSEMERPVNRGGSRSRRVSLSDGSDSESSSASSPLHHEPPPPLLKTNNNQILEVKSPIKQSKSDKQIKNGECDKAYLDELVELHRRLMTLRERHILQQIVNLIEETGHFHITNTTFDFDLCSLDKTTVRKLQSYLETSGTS
A1 inh – caspase 3/7 activation in MEF A1-2A-BIM cells, primary screen, A1 inhibitor project, cell-based, luminescence, HTS. Caspase-Glo 3/7 luminescence, 3 h; percent of clofoctol response, vehicle zero. caspase activation, % (concentration not given with the values). 0.066% of 330,000 active. AID 2462, 2010;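 active = over half of replicate activation scores above 10%, or exactly half above 10 with the replicate mean above 10; inconclusive = replicate mean below 10 yet half the replicates above 10; inactive = over half of replicates below 10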;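 also: wells of about 30 µL received 50 nL stock; many hits fall short of the cut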
UCH37 inh – inhibitors of human UCH37 deubiquitinase, primary screen, biochemical, Ub-AMC cleavage, fluorescence. Ubiquitin carboxyl-terminal hydrolase isozyme L5 (Homo sapiens), Q9Y5K5. purified proteasome/UCH37. inhibition, % (test concentration not listed). 0.33% of 330,000 active;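 active = mean of two replicates above 20%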;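 also: 0% = compound-free wells with enzyme and 100% = wells lacking proteasome; stock transfer was 100 nL into about 20 µL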
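Assay system: Proteasome-bound UCH37. Buffer or medium: pH 7.4 Tris-HCl (50 mM) with ovalbumin, ATP-MgCl2, DTT. Incubation: 30 min preincubation with enzyme, 25 min cleavage at room temperature. Measured by: fluorescence, ex 355 nm, em 460 nm. Read-out basis: percent inhibition. Control set: wells without proteasome as full block, compound-free enzyme plus substrate as uninhibited.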
T cruzi inh – inhibitors of intracellular T. cruzi growth, primary screen, luminescence, NIH3T3 host cells | T. cruzi beta-gal in NIH3T3, 90 h | inhibition, % (concentration not given with the values) | 1.4% of 300,000 active;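 active = mean inhibition across valid replicates above about 55%, limit read from the data; inconclusive = mean below that limit but half or more replicates reach it; inactive = mean below it, under half of replicates reach it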;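 also: signal also drops with host cell toxicity which is not excluded here; 0% = plate median of DMSO wells and 100% = zero luminescence signal; higher percent means less beta-gal luminescence so fewer parasites; stock transfer was 50 nL into about 50 µL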
Ecoli rRNA inh – reduced GFP signal of wild-type E. coli, primary screen, bacterial rRNA inhibitor project, GFP/RFP fluorescence, OD600, single point; 1.6% of 350,000 active; E. coli WT GFP vs humanized-ribosome RFP mutants, 24 h; stronger effect = lower value; DMSO median 0, no signal -100; GFP signal change (wild-type ribosome), % (test concentration not listed);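 active = significant combined selectivity score with lowered wild-type GFP, culture density cut under 30%, mutant RFP and density less affected; inactive = any of these conditions unmet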; also: one replicate is shown; some compounds called inactive have numbers as strong as hits
Beta cell apopt – inhibitors of cytokine-induced beta cell apoptosis, primary screen, luminescence; INS-1E cytokine-induced death, ATP luminescence, 48 h; percent of positive-control rescue, neutral wells zero; protection from apoptosis, % (concentration not given with the values); 0.8% of 300,000 active; AID 435005, 2010;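 active = all replicates at 75% or more, or half of them and the mean; inconclusive = half reach 75% but not the mean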;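 also: 0% = cytokine-treated negative control wells and 100% = positive control rescue; higher means more ATP so stronger rescue from cytokine killing; wells of about 40 µL received 100 nL stock; the first replicate is given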
E coli growth – E. coli growth inhibition, primary screen, OD600 | Escherichia coli growth, 23 h; stronger effect = lower value | AID 1053175, 2014 | OD600 absorbance (concentration not given with the values) | 0.21% of 330,000 active;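 active = OD600 absorbance below the run mean of sample wells minus 3.6 SD, in any replicate, cut at about 0.56 in these data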;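 also: stock transfer was 300 nL into about 60 µL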
FGF22 binding – binders of human FGF22 protein, primary screen, FGF22 synaptogenesis inhibitor project, biophysical, thermal shift, single point. 1.5% of 340,000 active. recombinant FGF22 thermal shift, SYPRO orange fluorescence; percent of sucrose octasulfate shift, DMSO zero. Fibroblast growth factor 22 (Homo sapiens), Q9HCT0. calls only at 9.99 µM;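 active = melting point raised past a set limit in the mean and every replicate; inconclusive = no clear call; three in four hits are not shown here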
Target sequence (Q9HCT0 whole entry, looked up): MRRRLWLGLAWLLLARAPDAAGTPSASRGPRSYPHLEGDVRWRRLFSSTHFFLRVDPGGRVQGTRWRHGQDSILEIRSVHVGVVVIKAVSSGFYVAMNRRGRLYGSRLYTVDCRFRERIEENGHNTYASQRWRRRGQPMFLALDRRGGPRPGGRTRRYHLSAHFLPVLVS
Ecoli rRNA inh OD600 – also measured in Ecoli rRNA inh; calls as there; OD600 change, %; measured here: OD600 growth;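 optical density of the mix in the first replicate; 0 = DMSO median and -100 = no signal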
Ecoli rRNA inh RFP – further read-out of Ecoli rRNA inh, marked with its call; RFP signal change, %; measured here: RFP humanized mutant strains;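 first replicate; 0 = DMSO median and -100 = no signal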
* = called active by the depositor; i = inactive; ? = inconclusive; · = no result given; & = joins results of further samples.

Molecule	AF4-AF9 inh	A1 inh	UCH37 inh	T cruzi inh	Ecoli rRNA inh	Ecoli rRNA inh OD600	Ecoli rRNA inh RFP	Beta cell apopt	E coli growth	FGF22 binding
COc1ccc(NC(=O)COC(=O)C23CC4CC(CC(O)(C4)C2)C3)cc1Cl	1.0	0.1	-1.5	·	-15	-26	-4.1	-5	0.67	i
O=C(N[C@@H](Cc1ccc(O)cc1)C(=O)O)c1cccnc1	-2.7	2.0	1.7	-23	10	-1	7.7	-3	·	i
C/C(=N\O)C(C)(C)Nc1ccc(Br)cc1	-4.3	0.0	·	-12	-20	-22	-5.2	-10	·	i
Cc1cccc(-n2ncc3c2CCCC3NC(=O)CCN2CCCO2)c1C (centres undefined)	2.9	0.5	0.2	-15	4	3	1.8	8	0.69	i
CCn1nc(C)c(/C=N/NC(=O)c2nc3nc(C)cc(C)n3n2)c1C	-3.7	0.0	·	-6	8	9	7.0	·	·	i
O=C(Nc1ccccc1-c1ccccc1)C1CCC1	-1.0	-0.7	5.5	-11	-6	-14	-7.3	-4	0.69	·
O=C(NCCSCc1c(F)cccc1Cl)c1ccc(CN2CCOCC2)cc1	4.2	1.1	0.7	12	-34	-59	8.4	2	0.68	i
O=C(CSc1nc2ccccc2n1S(=O)(=O)c1cccc([N+](=O)[O-])c1)NCc1cccs1	·	-0.2	3.9	-20	·	·	·	-6	0.7	·
CCOC(=O)c1[nH]c2ccc(OC)cc2c1NC(=S)N1CCN(c2cccc(C)c2C)CC1	11	-0.2	-1.7	35	10	2	14	·	0.7	i
CC(=O)/C(=C/Nc1ccc(Oc2ccccc2)cc1)c1ccccc1	·	-0.2	2.1	23	·	·	·	8	0.72	·
COc1ccc(/C=N/NC(=O)CNS(=O)(=O)c2ccccc2)cc1	-1.7	-0.9	·	·	5	11	2.5	-13	·	i
CN(C)C=Nc1c(Br)cc(Br)c2nonc12	·	0.6	3.1	-6	·	·	·	-1	0.74	·
CCCn1c(-c2cc(OC)c(OC)c(OC)c2)nc2c1c(=O)[nH]c(=O)n2Cc1ccccc1	1.8	0.8	-6.9	17	-4	-6	0.7	3	0.71	i
O=C(Nc1cc(C(F)(F)F)cc(C(F)(F)F)c1)c1ccc(Cn2cc(C(F)(F)F)ccc2=O)cc1	·	0.5	0.3	7	·	·	·	53	0.74	·
CCC(=O)N1CCc2cc(S(=O)(=O)NCCC(=O)N3CCN(c4ccccn4)CC3)ccc21	·	0.4	-0.4	·	·	·	·	0	0.65	·
N=C1C(=O)NC(=O)C1c1ccccc1 (centres undefined)	-1.6	·	0.5	·	-1	4	-2.6	·	0.69	i
CC(C)(C)NC(=O)C(c1ccccn1)N(C(=O)c1ccc2c(c1)OCCO2)C1CCCC1 (centres undefined)	·	0.4	2.6	4	·	·	·	2	0.76	·
Cc1ccc(SCC(=O)Nc2ccc(-c3nc4ccccc4[nH]3)cc2)cc1	6.4	-0.2	3.5	10	-2	10	-1.8	1	0.7	i
CCOc1ccc(-n2ccnc2)nn1	1.8	0.3	-1.8	-16	16	5	-0.8	0	0.7	i
COC(CNC(=O)CNC(=S)N(Cc1ccccc1)Cc1cccnc1)OC	-0.7	0.5	-1.7	-12	20	5	2.7	-3	0.7	i
Cc1cc(S(=O)(=O)N2CCCC2)ccc1OCC(=O)NCc1ccccc1	0.3	1.4	2.9	11	-1	-1	0.0	·	0.7	i
O=S(=O)(c1ccc(S(=O)(=O)N2CCCC2)cc1)N1CCCCC1	·	-0.6	5.2	-4	·	·	·	-3	0.71	·
Cc1ccc(N2C(=O)CC(SCC(=O)Nc3ccc(S(N)(=O)=O)cc3)C2=O)cc1 (centres undefined)	-4.1	0.1	0.6	-4	12	12	-2.6	·	0.66	i
Cc1cccc(NC(=O)NC2CC(=O)N(c3ccc4c(c3)OCCO4)C2)n1 (centres undefined)	5.9	0.0	3.2	-5	-7	-3	3.7	-3	0.68	i
CCCn1c(=O)c2sccc2n2c(CCCC(=O)NCC3CCCO3)nnc12 (centres undefined)	-1.6	-1.0	-1.0	-14	7	9	2.2	2	0.7	i
CN(C(=O)CC1C(=O)NCCN1Cc1ccc2ccccc2c1)C1CCOCC1 (centres undefined)	1.4	-0.5	-6.4	-12	16	9	1.8	·	0.7	i
O=C(Nc1ccc2c(c1)OCO2)c1noc2c1CCCC2	1.1	-6.9	-0.4	-5	8	13	-1.0	-1	0.66	i
Cc1ccc(S(=O)(=O)Nc2cccc3cccnc23)c([N+](=O)[O-])c1	-0.6	-0.3	·	15	-51	-74	-13	-3	·	i
CC(C)CN1C(=S)SC(C)(C)C1n1oc(=O)n(-c2ccccc2)c1=O (centres undefined)	1.9	-1.3	4.1	11	-4	-8	1.6	10	0.68	i
CNC(=S)NNC(=O)c1ccc(N(C)C)cc1	-5.8	-0.6	6.2	-25	17	6	2.1	-3	0.72	i
CCOC(=O)c1cnc2c(C)cc(C)cc2c1Nc1ccc(S(=O)(=O)Nc2ncccn2)cc1	-15	0.6	4.1	-7	·	·	·	-6	0.7	i
COc1cccc(CNC(=O)CSc2nc3c(oc4ccccc43)c(=O)n2CC2CCCO2)c1 (centres undefined)	-2.0	0.1	2.1	-10	2	1	-4.2	0	0.72	i
O=[N+]([O-])c1ccc(NC2CCN(Cc3ccccc3)CC2)c([N+](=O)[O-])c1	12	0.7	7.9	32	·	·	·	8	0.68	i
CC(=O)Nc1ccc(C(=O)CSc2nc3ccc(C)cc3[nH]2)cc1	·	0.2	2.3	-7	·	·	·	6	0.69	·
CCOC(=O)c1cc(CC)sc1NC(=O)CSc1nc2ccccc2c(=O)n1Cc1ccco1	-6.1	0.6	3.1	8	4	4	-3.5	-2	0.72	i
O=C(/C=C/c1ccccc1)NC(NC(=S)Nc1cccc(Cl)c1)C(Cl)(Cl)Cl (centres undefined)	·	0.5	3.1	59*	·	·	·	·	0.7	·
c1ccc(Oc2cc(-n3cccn3)ncn2)cc1	·	-8.2	4.4	-1	·	·	·	-7	0.71	·
COC(=O)C1=C(C)OC(N)=C(C#N)C1c1ccccc1 (centres undefined)	·	-0.5	-0.5	-3	·	·	·	1	0.73	·
CC(Sc1nc(N)cc(=O)[nH]1)C(=O)N1CCOCC1 (centres undefined)	-0.1	·	3.6	·	-3	0	0.4	·	0.69	i
C[C@H](CO)N1C[C@H](C)[C@@H](CN(C)C(=O)Nc2ccccc2)Oc2c(NS(=O)(=O)c3cn(C)cn3)cccc2C1=O	-2.2&-2.5	0.7	3.2	·	3&11	3&1	-2.3&-1.7	-1	0.76	i
CC(=O)c1cccc(NS(=O)(=O)c2c(C(=O)N3CCOCC3)c(C)n(C)c2C)c1	-1.4	-1.7	0.6	-4	2	14	2.9	·	0.71	i
CCOc1ccc(NC(=O)N(CCN(C)C)C(C)c2cccnc2)cc1 (centres undefined)	-15	0.3	0.6	22	13	2	-2.9	-4	0.69	i
CC(C)c1ccc(NC(=O)C(c2ccccc2)N2CCN(C(=O)c3ccco3)CC2)cc1 (centres undefined)	·	-0.1	0.8	5	·	·	·	·	0.74	·
CCCn1c(N)c(C(=O)COC(=O)c2c(C)noc2C)c(=O)n(C)c1=O	·	-0.8	0.4	-1	·	·	·	4	0.78	·
O=C1OCCN1C(=O)[C@H]1[C@H](c2ccc(Cl)cc2)C(c2ccc(F)cc2)=NN1c1ccccc1	-0.6	·	-121	·	35	8	4.9	·	0.71	i
Cc1cccc(NC(=O)CSc2ncnc3sc(C)cc23)c1	-0.6	-0.2	2.1	-3	5	5	0.9	-1	0.67	i
Cc1ccc(S(=O)(=O)NC(=O)c2cccc(N(C)C)c2)cc1	-2.9	-0.5	-4.0	·	3	3	-2.9	-3	0.69	i
O=C(O)CC12CC3CC(C1)CC(n1ncc(NCc4ccccc4Cl)c(Cl)c1=O)(C3)C2	-0.2	-0.1	4.1	6	-7	-4	-4.8	-6	0.71	i
CN(CCNC(=O)C1CC(=O)N(c2ccc(F)c(Cl)c2)C1)Cc1ccccc1 (centres undefined)	0.2	-0.5	2.6	60*	-7	0	-2.2	-2	0.67	i
O=C(N/N=C/C1CC2C=CC1C2)c1ccccc1O (centres undefined)	-38	0.6	·	?	5	3	-0.6	-5	·	i
Cc1cc(-n2cnnn2)ccc1C(C)C	-16	-0.9	1.0	-8	6	-19	-0.4	-8	0.7	i
COc1ccc(C2=NOC(C(=O)Nc3cccnc3)C2)cc1OC (centres undefined)	-20	0.5	0.9	-11	3	0	-1.1	6	0.71	i
O=C(CN1C(=O)c2ccccc2S1(=O)=O)NC(Nc1ccccc1F)C(Cl)(Cl)Cl (centres undefined)	-8.2	0.0	1.1	-9	-36	-50	-9.2	-3	0.72	i
O=C(c1ccco1)N1CCN(C(=S)Nc2ccccc2Cl)CC1	0.2	0.0	0.7	-16	·	·	·	3	0.63	i
O=C(NCCc1ccc(Cl)cc1)C1CCN(S(=O)(=O)c2ccc(-n3cnnn3)cc2)CC1	·	0.0	1.6	21	·	·	·	0	0.72	·
O=C(O)CNC(=O)/C=C/c1ccc(Cl)cc1Cl	-3.9	-2.2	2.8	-9	2	-1	-0.8	5	0.68	·
CN(C)CCOC1c2ccccc2-c2ccccc21	1.8	0.3	2.1	-2	8	-1	3.1	0	0.66	i
COc1ccc(C(C)=O)cc1CN1C(=O)NC2(CCCC2)C1=O	-0.3	0.5	2.9	-6	·	·	·	-1	0.63	·
Cc1ccc(NC(=O)CN2C(=O)N/C(=C/c3ccccc3OCc3cccc(C(=O)O)c3)C2=O)cc1	-2.3	-0.3	-215	8	6	4	2.0	-3	0.64	·
C/C(=N/NC(=O)CCc1c(C)n[nH]c1C)c1cccc([N+](=O)[O-])c1	·	0.1	·	1	16	9	4.2	1	·	i

Bioassay records: PubChem, several laboratories

This is a subset; count on the stated rates, not on these rows.
